Screening data (PubChem)
A1 apoptosis 2: compounds inhibiting A1, read as caspase activation. MEF A1-2A-BIM cells, caspase-Glo luminescence, 3 h; percent of clofoctol response, DMSO zero. caspase activation, % (no concentration beside the values). 24,000 tested, under 10 active; in the data active means caspase activation above about 5.9%; inconclusive means no clear call, values can overlap the other calls; inactive means below about 2.2%;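 further: wells of about 30 µL received 50 nL stock; the first replicate is given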
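Evaluation: Caspase-3/7 activity from luminescence increase | Assay system: A1-2A-BIM mouse embryonic fibroblasts | Quantity: 2500 MEF cells/well | Medium: RPMI-1640 plus 10% FBS | Detection: Caspase-Glo 3/7 luminescence, 1 h at room temperature | Dosing: 50 nL compound per well, pinned | Timing: Cells settled overnight, compound exposure 3 h at 37 °C, 5% CO2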
An asterisk follows results filed as active; ? = inconclusive. The list is partial. The share of hits here may be higher or lower than overall.

molecule,A1 apoptosis 2
C[C@H](CO)N1C[C@H](C)[C@@H](CN(C)S(C)(=O)=O)Oc2ccc(NS(=O)(=O)c3ccc(Cl)cc3)cc2C1=O,0.1
COc1ccc(CN(C)C[C@H]2OCCCC[C@@H](C)Oc3ccc(NC(=O)Nc4cccc5ccccc45)cc3C(=O)N([C@H](C)CO)C[C@H]2C)cc1,-0.7
Cc1noc(C)c1NC(=O)N(C)C[C@H]1OCCCC[C@@H](C)Oc2ccc(NC(=O)C3CCCCC3)cc2C(=O)N([C@H](C)CO)C[C@H]1C,1.2
Cc1noc(C)c1S(=O)(=O)N(C)C[C@H]1OCc2cnnn2CCCC(=O)N([C@@H](C)CO)C[C@H]1C,0.0
C[C@@H]1CN([C@H](C)CO)C(=O)CCCn2cc(nn2)CO[C@H]1CN(C)CC1CCCC1,-0.2
C[C@@H]1CN([C@@H](C)CO)C(=O)c2cc(NS(=O)(=O)c3ccc(Cl)cc3)ccc2O[C@H]1CN(C)Cc1ccncc1,0.8
C[C@@H]1CN([C@H](C)CO)C(=O)c2cc(NC(=O)Nc3ccccc3)ccc2O[C@H]1CN(C)Cc1ccc2c(c1)OCO2,1.0
C[C@@H]1CCCCO[C@@H](CN(C)S(=O)(=O)c2ccc(F)cc2)[C@@H](C)CN([C@@H](C)CO)C(=O)c2cc(NS(=O)(=O)c3cn(C)cn3)ccc2O1,1.2
CNC[C@H]1Oc2c(NS(C)(=O)=O)cccc2C(=O)N([C@@H](C)CO)C[C@H]1C,-0.3
Cc1noc(C)c1NC(=O)Nc1cccc2c1O[C@@H](CN(C)C(=O)Nc1ccccc1)[C@H](C)CN([C@H](C)CO)C2=O,0.2
COc1ccc(NC(=O)Nc2cccc3c2O[C@@H](CN(C)C)[C@@H](C)CN([C@@H](C)CO)C3=O)cc1,0.2
C[C@@H]1CN([C@@H](C)CO)C(=O)c2cc(NC(=O)CCCN(C)C)ccc2O[C@@H]1CN(C)Cc1ccc(C(=O)O)cc1,0.7
C[C@@H]1CN([C@H](C)CO)C(=O)CCCn2cc(nn2)CO[C@@H]1CN(C)C(=O)c1cc(-c2ccccc2)on1,0.2
Cc1noc(C)c1S(=O)(=O)N(C)C[C@H]1Oc2ccc(NS(=O)(=O)c3ccccc3)cc2CC(=O)N([C@H](C)CO)C[C@@H]1C,-1.4
Cc1noc(C)c1NC(=O)N(C)C[C@@H]1Oc2ccc(NC(=O)Cc3cn(C)c4ccccc34)cc2C(=O)N([C@@H](C)CO)C[C@H]1C,0.2
Cc1ccc(S(=O)(=O)N(C)C[C@H]2Oc3c(NC(=O)Nc4ccc(F)cc4)cccc3C(=O)N([C@@H](C)CO)C[C@H]2C)cc1,1.0
C[C@H]1CN([C@@H](C)CO)C(=O)Cc2cc(NC(=O)Cc3ccccc3)ccc2O[C@@H]1CN(C)Cc1ccc2c(c1)OCO2,0.5
Cc1ccc(S(=O)(=O)Nc2ccc3c(c2)C(=O)N([C@@H](C)CO)C[C@H](C)[C@@H](CN(C)Cc2ccc(C(F)(F)F)cc2)OCCCC[C@@H](C)O3)cc1,-2.4
Cc1ccc(S(=O)(=O)Nc2ccc3c(c2)C(=O)N([C@H](C)CO)C[C@H](C)[C@@H](CN(C)C(=O)Nc2ccc4c(c2)OCO4)O3)cc1,-0.7
C[C@H]1CN([C@@H](C)CO)C(=O)c2cc(NC(=O)Nc3ccccc3)ccc2O[C@@H]1CN(C)C(=O)Nc1cccc2ccccc12,-0.2
C[C@H]1CCCCO[C@@H](CN(C)C(=O)Nc2ccc(F)cc2)[C@@H](C)CN([C@@H](C)CO)C(=O)c2cc(NS(=O)(=O)c3cccs3)ccc2O1,-0.8
C[C@@H]1CCCCO[C@@H](CN(C)C(=O)C2CCCCC2)[C@H](C)CN([C@H](C)CO)C(=O)c2cc(N(C)C)ccc2O1,0.4
Cc1noc(C)c1S(=O)(=O)Nc1ccc2c(c1)C(=O)N([C@@H](C)CO)C[C@@H](C)[C@@H](CN(C)Cc1ccc(Oc3ccccc3)cc1)O2,-2.2
C[C@H](CO)N1C[C@H](C)[C@@H](CN(C)C(=O)Nc2ccc(C(F)(F)F)cc2)OCc2cn(nn2)CCCC1=O,1.3

A draw from above in order of length of the SMILES, lowest first:
molecule,A1 apoptosis 2
C[C@@H]1CN([C@H](C)CO)C(=O)CCCn2cc(nn2)CO[C@H]1CN(C)CC1CCCC1,-0.2
C[C@H]1CN([C@@H](C)CO)C(=O)c2cc(NC(=O)Nc3ccccc3)ccc2O[C@@H]1CN(C)C(=O)Nc1cccc2ccccc12,-0.2
Cc1ccc(S(=O)(=O)Nc2ccc3c(c2)C(=O)N([C@H](C)CO)C[C@H](C)[C@@H](CN(C)C(=O)Nc2ccc4c(c2)OCO4)O3)cc1,-0.7

(list continues)
molecule,A1 apoptosis 2
C[C@@H]1CCCCO[C@@H](CN(C)S(C)(=O)=O)[C@@H](C)CN([C@H](C)CO)C(=O)c2cc(NS(=O)(=O)c3ccccc3)ccc2O1,-0.1
COc1ccc(NC(=O)Nc2ccc3c(c2)C(=O)N([C@@H](C)CO)C[C@H](C)[C@H](CN(C)S(=O)(=O)c2ccc(C)cc2)OCCCC[C@H](C)O3)cc1,-0.4
C[C@@H]1CN([C@@H](C)CO)C(=O)c2cc(NC(=O)C3CCCCC3)ccc2O[C@@H](C)CCCCO[C@@H]1CN(C)Cc1ccc(C(F)(F)F)cc1,-1.7
C[C@@H]1CN([C@H](C)CO)C(=O)c2cc(NS(=O)(=O)c3cn(C)cn3)ccc2O[C@@H]1CN(C)Cc1ccc(Oc2ccccc2)cc1,0.6
Cc1noc(C)c1NC(=O)Nc1ccc2c(c1)CC(=O)N([C@H](C)CO)C[C@H](C)[C@@H](CN(C)C)O2,0.3
COc1ccc(S(=O)(=O)Nc2ccc3c(c2)C(=O)N([C@@H](C)CO)C[C@@H](C)[C@@H](CN(C)C(=O)Nc2c(C)noc2C)OCCCC[C@H](C)O3)cc1,-0.8
C[C@H]1CN([C@@H](C)CO)C(=O)Cc2cc(NS(=O)(=O)c3cccs3)ccc2O[C@@H]1CN(C)Cc1ccc(C(=O)Nc2ccccc2N)cc1,1.2
C[C@@H]1CN([C@H](C)CO)C(=O)c2cccc(NC(=O)C3CCOCC3)c2O[C@H]1CN(C)S(C)(=O)=O,-0.2
C[C@@H]1CN([C@@H](C)CO)C(=O)Cc2cc(NC(=O)Nc3cccc4ccccc34)ccc2O[C@H]1CN(C)C(=O)Nc1ccc(C(F)(F)F)cc1,-0.6
C[C@@H]1CCCCO[C@@H](CN(C)S(=O)(=O)c2cccs2)[C@H](C)CN([C@H](C)CO)C(=O)c2cc(NC(=O)Cc3ccccc3)ccc2O1,-1.1
C[C@@H]1CN([C@H](C)CO)C(=O)c2cc(NC(=O)C3CC3)ccc2O[C@H]1CN(C)Cc1ccc(C(=O)O)cc1,0.4
Cc1noc(C)c1NC(=O)N(C)C[C@H]1OCc2cnnn2CCCC(=O)N([C@H](C)CO)C[C@@H]1C,1.9
Cc1ccccc1CN(C)C[C@H]1OCc2cn(nn2)CCCC(=O)N([C@H](C)CO)C[C@H]1C,0.2
C[C@@H]1CCCCO[C@H](CN(C)S(=O)(=O)c2cn(C)cn2)[C@@H](C)CN([C@@H](C)CO)C(=O)c2cc(N(C)C)ccc2O1,0.6
C[C@H](CO)N1C[C@H](C)[C@@H](CN(C)Cc2ccccc2)Oc2ccc(NC(=O)CCCCCC(=O)Nc3ccccc3N)cc2CC1=O,1.1
Cc1noc(C)c1S(=O)(=O)Nc1ccc2c(c1)C(=O)N([C@H](C)CO)C[C@H](C)[C@@H](CN(C)C(=O)c1ccccc1)OCCCC[C@@H](C)O2,-0.1
C[C@H]1CN([C@@H](C)CO)C(=O)c2cc(NC(=O)Nc3ccccc3)ccc2O[C@H]1CN(C)S(=O)(=O)c1cn(C)cn1,-0.5
COc1ccc(S(=O)(=O)N(C)C[C@H]2Oc3ccc(NS(=O)(=O)c4ccc(Cl)cc4)cc3C(=O)N([C@H](C)CO)C[C@@H]2C)cc1,-0.7
O=C(CCCCCC(=O)N/N=C/c1cc(O)ccc1O)NO,1.6
C[C@@H]1CCCCO[C@@H](CN(C)Cc2ccc3c(c2)OCO3)[C@@H](C)CN([C@@H](C)CO)C(=O)c2cc(NS(=O)(=O)c3cccs3)ccc2O1,-0.1
CC(C)NC(=O)Nc1ccc2c(c1)C(=O)N([C@@H](C)CO)C[C@H](C)[C@H](CN(C)S(=O)(=O)c1ccc(Cl)cc1)O2,-0.2
C[C@@H]1CN([C@H](C)CO)C(=O)Cc2cc(NS(C)(=O)=O)ccc2O[C@H]1CN(C)C(=O)Nc1ccc(F)cc1,-0.5
CC(C)NC(=O)N(C)C[C@@H]1Oc2c(NC(=O)c3nc4ccccc4s3)cccc2C(=O)N([C@@H](C)CO)C[C@@H]1C,-0.6
COc1ccc(NC(=O)N(C)C[C@H]2Oc3ccc(NC(=O)Nc4ccccc4)cc3C(=O)N([C@H](C)CO)C[C@@H]2C)cc1,-0.8

Part of the list above, field by field:
CC(C)NC(=O)N(C)C[C@@H]1Oc2c(NC(=O)c3nc4ccccc4s3)cccc2C(=O)N([C@@H](C)CO)C[C@@H]1C
  A1 apoptosis 2: -0.6
CC(C)NC(=O)Nc1ccc2c(c1)C(=O)N([C@@H](C)CO)C[C@H](C)[C@H](CN(C)S(=O)(=O)c1ccc(Cl)cc1)O2
  A1 apoptosis 2: -0.2

(list continues)
molecule,A1 apoptosis 2
COc1ccc(NC(=O)N(C)C[C@H]2OCCCC[C@H](C)Oc3ccc(NC(=O)Nc4ccc(C(F)(F)F)cc4)cc3C(=O)N([C@H](C)CO)C[C@@H]2C)cc1,0.7
C[C@H](CO)N1C[C@H](C)[C@H](CN(C)S(=O)(=O)c2ccc(F)cc2)Oc2ncc(Br)cc2C1=O,-0.4
COc1ccc(NC(=O)N(C)C[C@@H]2Oc3c(cccc3N(C)C)C(=O)N([C@H](C)CO)C[C@@H]2C)cc1,1.2
C[C@H](CO)N1C[C@H](C)[C@H](CN(C)C(=O)c2ccccc2)OCCCC[C@H](C)Oc2ccc(NC(=O)Nc3ccc4c(c3)OCO4)cc2C1=O,0.3
Cc1ccc(S(=O)(=O)N(C)C[C@@H]2Oc3ncc(/C=C/c4ccccc4)cc3C(=O)N([C@H](C)CO)C[C@@H]2C)cc1,-0.1
CNC[C@@H]1Oc2c(NC(=O)Nc3ccc(F)cc3)cccc2C(=O)N([C@H](C)CO)C[C@H]1C,?
Cc1ccc(S(=O)(=O)Nc2ccc3c(c2)C(=O)N([C@H](C)CO)C[C@H](C)[C@@H](CN(C)C(=O)Nc2ccc(C(F)(F)F)cc2)OCCCC[C@@H](C)O3)cc1,0.3
C[C@@H]1CCCCO[C@@H](CN(C)S(=O)(=O)c2cn(C)cn2)[C@H](C)CN([C@H](C)CO)C(=O)c2cc(NS(=O)(=O)c3cccs3)ccc2O1,-0.1
COc1ccc(CN(C)C[C@@H]2OCCCC[C@@H](C)Oc3ccc(NC(=O)CCCN(C)C)cc3C(=O)N([C@@H](C)CO)C[C@@H]2C)cc1,0.0
COc1ccc(/C=N/NC(=O)c2ccccc2O)cc1Br,-1.8
O=S(=O)(N[C@@H]1CCN(Cc2cccc(OCCO)c2)C1)c1cccc2cccnc12,-0.8
C[C@@H]1CN([C@H](C)CO)C(=O)c2cc(NC(=O)Cc3ccccc3)ccc2O[C@@H](C)CCCCO[C@H]1CN(C)S(=O)(=O)c1cccs1,0.8
C[C@@H]1CCCCO[C@@H](CN(C)S(=O)(=O)c2ccc(F)cc2)[C@@H](C)CN([C@H](C)CO)C(=O)c2cc(NC(=O)c3ccncc3)ccc2O1,-0.7
C[C@@H]1CN([C@H](C)CO)C(=O)c2cc(NC(=O)Nc3ccccc3)ccc2O[C@@H](C)CCCCO[C@H]1CN(C)S(=O)(=O)c1cccs1,-0.2
COc1ccc(S(=O)(=O)N(C)C[C@@H]2Oc3ccc(NC(=O)C4CC4)cc3C(=O)N([C@@H](C)CO)C[C@H]2C)cc1,-0.9
C[C@@H]1CCCCO[C@@H](CN(C)CC2CCCCC2)[C@H](C)CN([C@@H](C)CO)C(=O)c2cc(NS(=O)(=O)c3ccc(Cl)cc3)ccc2O1,0.2
C[C@H]1CN([C@@H](C)CO)C(=O)Cc2cc(NC(=O)Nc3ccc(F)cc3)ccc2O[C@H]1CN(C)C(=O)Nc1ccc2c(c1)OCO2,-1.3
Cc1ccc(O)c(/C=N/NC(=O)CCCCCC(=O)O)c1,-0.2
Cc1noc(C)c1S(=O)(=O)N(C)C[C@@H]1Oc2ccc(N(C)C)cc2CC(=O)N([C@@H](C)CO)C[C@H]1C,0.2
C[C@@H]1CN([C@H](C)CO)C(=O)c2cc(NC(=O)Cc3cn(C)c4ccccc34)ccc2O[C@H]1CN(C)Cc1ccc(-c2ccccc2)cc1,-1.5
CC(C)NC(=O)N(C)C[C@@H]1OCCCC[C@H](C)Oc2ccc(NS(=O)(=O)c3cccs3)cc2C(=O)N([C@H](C)CO)C[C@@H]1C,0.1
C[C@H](CO)N1C[C@H](C)[C@H](CN(C)C(=O)Nc2ccc(F)cc2)Oc2c(NC(=O)Nc3ccc(C(F)(F)F)cc3)cccc2C1=O,-1.0
Cc1noc(C)c1NC(=O)Nc1ccc2c(c1)CC(=O)N([C@@H](C)CO)C[C@H](C)[C@@H](CN(C)Cc1ccc(C(F)(F)F)cc1)O2,-0.4
